# Autofluor counter = compound fluorescence in toxin protease inhibitor counterscreen; AID 624483; fluorescence intensity (test concentration not listed); hit rate 3.1% among 360,000; compound autofluorescence counterscreen, microsphere flow cytometry; stronger effect = higher value;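 active = at least 3 SD above the mean of all compounds, about 16000 in these data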;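 also: 100 nL of 1 mM stock went into each well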
# An asterisk follows results filed as active.
SMILES,Autofluor counter
CC(C)NC(=O)C1(C)CCCCN1Cc1ccc(OCc2ccccc2)cc1 (stereo unspecified),3287
C#CCN(C[C@@H]1[C@@H](OC(=O)NC2CC2)[C@@H](OC(=O)NC2CC2)CN(C(=O)OC(C)C)N1C(=O)OC(C)C)S(=O)(=O)c1ccc(C)cc1,4032
CCOC(=O)N(C)c1c(CC)nc2c(OCc3ccccc3OC)cccn12,4250
NC(=O)c1cccc(-c2coc3c(C(=O)NCc4cccnc4)cccc23)c1,3651
O=C(Nc1ccc2c(c1)OCO2)C1Cc2c(-c3cccnc3)ccnc2O1 (stereo unspecified),2960
CCN1C(=O)[C@H]2[C@@H](c3ccc(OC)cc3)N[C@]3(CCCN(Cc4ccco4)C3=O)[C@H]2C1=O,3793
Cc1cccc(C)c1OCCOC(=O)c1ccc(S(=O)(=O)N2CCCC2)cc1,3865
CCOC(=O)[C@]12CCC=C1N(CCC1=CCCCC1)C(=O)[C@H](CC(=O)NCCCOC)C2,5913
O=C(Nc1ccccc1Cl)c1cc(C2CCCCN2C(=O)C2CCCCC2)on1 (stereo unspecified),3862
CC(=O)c1cccc(-c2ccnc3c2CC(C(=O)Nc2cccc(N(C)C)c2)O3)c1 (stereo unspecified),3602
CC1=C(C(=O)N(C(C)C)C(C)C)CC(CC(=O)NC2CC2)C(=O)N1CCC1=CCCCC1 (stereo unspecified),5274
O=S1(=O)CC(N2CCCCC2)CN1Cc1cn(Cc2ccc(F)cc2)nn1 (stereo unspecified),4588
CC1=C(C(=O)N(C)C)CC(CC(=O)NCc2cccc3ccccc23)C(=O)N1CCC1=CCCCC1 (stereo unspecified),3703
CC(O)(c1ccc(F)c(F)c1)c1nc(-c2cccc(C(F)(F)F)c2)cs1 (stereo unspecified),2800
CC(C)C(=O)N1CCCC1(C)C(=O)NCc1ccccn1 (stereo unspecified),4002
Cc1cncc(NCc2cccc(Cl)c2)n1,4011
N#C/C(=C\c1cccc(O)c1)C(=O)O,5694
CCn1c(C)nnc1SCC(=O)Nc1ccc(OC)cc1,3446
CCOc1ccc(N=Cc2ccc([N+](=O)[O-])cc2)c(O)c1,3646
CC(C)(C)C(=O)c1c(N)[nH]c(C(=O)c2ccccc2)c1-c1ccc(F)cc1,4830
CC1(C(=O)NS(=O)(=O)C2CC2)CCCN(C(=O)c2ccccc2)C1 (stereo unspecified),2831
Cc1cnc(C(=O)N(c2ccccc2)C(c2ccccc2)c2nc3ccccc3[nH]2)cn1 (stereo unspecified),5460
Cc1cc(C)c(NC(=O)CN(C)C(=O)CCN2C(=O)C3CCCCC3C2=O)c(C)c1 (stereo unspecified),3866
COCCNc1ncnc2c1ncn2[C@H]1CN(Cc2ccco2)C[C@@H](CO)O1,2917
COc1ccccc1NC(=O)N(C)C[C@@H]1OCc2cn(nn2)CCCC(=O)N([C@H](C)CO)C[C@H]1C,3288
CCC(c1nnnn1-c1ccc2c(c1)OCCO2)N1CCN(c2ccc(C(F)(F)F)cc2[N+](=O)[O-])CC1 (stereo unspecified),5669
COc1cc(CN2C[C@@H](CO)O[C@@H](n3cnc4c(NC(C)C)ncnc43)C2)cc(OC)c1OC,3901
Cc1cc(N2CCOCC2)nc(N2CCOCC2)c1C#N,4114
CC(C)c1ccc(NC(=O)C2Cc3c(-c4ccccc4Oc4ccccc4)ccnc3O2)cc1 (stereo unspecified),3526
COc1ccc(S(=O)(=O)N2CCN(CC(=O)c3c(N)n(C)c(=O)n(C)c3=O)CC2)cc1OC,4047
CC1(C(=O)NS(=O)(=O)c2ccc(F)cc2F)CCN1C(=O)Cc1ccccc1 (stereo unspecified),3444
CCc1cccc(NC(=O)COC(=O)c2c(C)nn(-c3ccccc3)c2C)c1,3677
CCCC(=O)N1CCC1(C)C(=O)Nc1cc(OC)c(OC)c(OC)c1 (stereo unspecified),3460
CC1(C(=O)NS(=O)(=O)c2ccccc2Cl)CCN1C(=O)Cc1cc(F)ccc1F (stereo unspecified),3486
CCN(CC)C(=O)c1[nH]cnc1C(=O)Nc1ccccc1F,3779
CCNC(=O)C1(C)CCN(Cc2csc(-c3ccccc3)n2)C1 (stereo unspecified),2978

# Fetched by structure from above:
SMILES,Autofluor counter
COc1cc(CN2C[C@@H](CO)O[C@@H](n3cnc4c(NC(C)C)ncnc43)C2)cc(OC)c1OC,3901
CCNC(=O)C1(C)CCN(Cc2csc(-c3ccccc3)n2)C1 (stereo unspecified),2978

# Entries listed so far that contain a cyano group:
SMILES,Autofluor counter
N#C/C(=C\c1cccc(O)c1)C(=O)O,5694
Cc1cc(N2CCOCC2)nc(N2CCOCC2)c1C#N,4114

# The list continues:
SMILES,Autofluor counter
O=C1Nc2ccccc2N=C(c2ccc3c(c2)OCO3)C1N(C(=O)c1ccnc2ccccc12)c1ccccc1 (stereo unspecified),6155
Cn1c(=O)ccc2ccccc21,4818
CCC(CC)CC1CN2CCc3cc(OC)c(OC)cc3C2CC1(O)CC (stereo unspecified),4182
CC1=C(C(=O)N2CCOCC2)CC(CC(=O)NCCCN(C)C)C(=O)N1Cc1ccc(C(C)(C)C)cc1 (stereo unspecified),5877
CCOc1ccc(-n2c(=S)sc3c(=O)[nH]c(SCC(=O)NC4CCCCC4)nc32)cc1,3312
Cc1noc(C)c1-c1ccc(C(=O)N2CCN(C)CC2)c2occc12,3916
N=c1c2ccccc2nc2n1CCCCCCC2,3916
O=C(O)Cc1ccc(NC(=O)c2ccc3c(c2)C(=O)N(Cc2ccccc2)C3=O)cc1,3931
Nc1nc2ccc(Cl)cc2cc1C(=O)NCc1ccc(Oc2ccccc2)cc1,5114
CCC[C@H]1CN(c2ccccc2)C(=O)[C@@H]1CC(=O)Nc1ccc(Br)cc1,3503
COc1ccccc1CCC(=O)Nc1ccc2c(c1)c(=O)n(C)n2-c1cccs1,2679
CCN(CC)CCCn1c2c(c(SCC(=O)Nc3cc(C)cc(C)c3)nc1=O)CCC2,3619
CCS(=O)(=O)N1CCC2(CC1)OCCN2S(=O)(=O)c1ccccc1,3769
COc1ccc(CNC(=O)c2sc(=O)n(Cc3cc(C(C)=O)ccc3OC)c2C)cc1,5439
CN1OC[C@@H]2CN(S(=O)(=O)c3cccc(C(F)(F)F)c3)[C@H](c3ccc(N4CCCCC4)cc3)C[C@@H]21,5731
COc1cccc(C(NC(C)=O)c2nc(-c3ccc(OC)nc3)cs2)c1 (stereo unspecified),4102
COc1cccc(C(NC(C)=O)c2nc(-c3ccncc3)cs2)c1 (stereo unspecified),3660
CCOC(=O)C1=CCC(c2ccccc2Cl)N(S(=O)(=O)c2ccc(C)cc2)C1 (stereo unspecified),5006
O=C(c1ccco1)N1CCN(C2CN(Cc3ccccc3)S(=O)(=O)C2)CC1 (stereo unspecified),6061
O=C(CCc1ccccc1)N1Cc2cc(-c3ccccc3)ccc2-n2nncc2C1,5748
COc1cccc(/C=C2\SC(=S)N(CCCC(=O)Nc3cccc(C(=O)O)c3)C2=O)c1,3776
CC(C)Oc1ccc(CN2CCC2(C)C(=O)Nc2cccc(Oc3ccccc3)c2)cc1 (stereo unspecified),3571
CC1(C)COC(Cc2ccccc2)=N1,3901
O=C(COc1ccc(CNC[C@H]2O[C@@H](n3ccc(=O)[nH]c3=O)[C@H](O)[C@@H]2O)cc1)Nc1nccs1,6538
Cc1cccc(C)c1NC(=O)C1c2ccccc2OCC(=O)N1Cc1ccccc1 (stereo unspecified),5810
COc1ccc(Cl)cc1-c1cc(C(=O)NCc2cccs2)[nH]n1,4191
Cc1noc(C)c1C(=O)OC(C)C(=O)c1ccc(C(C)(C)C)cc1 (stereo unspecified),3530
CCCCN(C=O)c1c(CC)nc2ccc(C(=O)NCc3cccs3)cn12,2940
C[C@H]1CN([C@@H](C)CO)C(=O)CCCn2nncc2CO[C@H]1CN(C)S(=O)(=O)c1cccc(C#N)c1,4564
Nc1cc(=O)[nH]c(SCc2ccccc2)n1,2959
CCCCCCCCN1C(=O)[C@H](CC(=O)NCCCOC)C[C@@]2(C(=O)OCC)CCCC=C12,4741
O=C(NNC(=O)c1cccc(S(=O)(=O)Nc2ccccc2F)c1)c1ccncc1,3683
CC(C)c1ccc(C(=O)N2CCCC(c3cc(C(=O)NCc4ccccc4)no3)C2)cc1 (stereo unspecified),3365
C[C@H](CO)N1C[C@H](C)[C@@H](CN(C)C(=O)Oc2ccccc2)OCc2cn(nn2)CCCC1=O,3262
CCOC(=O)C1=CCN(S(=O)(=O)c2ccccc2[N+](=O)[O-])C1c1ccc(C)cc1 (stereo unspecified),5331
CC(=O)Cn1cnc2c(cnn2-c2ccc(F)cc2)c1=O,4218
CCc1nc2ccc(C(=O)Nc3cccc(OCC(=O)N(C)C)c3)cn2c1N(C)Cc1ccc(OC)cc1,2908
CCCS(=O)(=O)NC(=O)C1(C)CCN(C(=O)COCc2ccccc2)C1 (stereo unspecified),2881
Cc1cccc(C)c1Cn1c(C)c(C(=O)NCc2cccc(Cl)c2)sc1=O,4279
C[C@@H]1CN([C@H](C)CO)C(=O)CCCn2nncc2CO[C@@H]1CN(C)C(=O)Nc1ccc2c(c1)OCO2,3016
OCCOC1CCCc2oc(-c3ccccc3)c(C#CC3(O)CCCCC3)c21 (stereo unspecified),5724
COc1ccc(-c2ccc(C(=O)Nc3cccc(Oc4ccccc4)c3)c3occc23)c(C)c1,4394
Cc1ccsc1C(=O)N1CCC1(C)C(=O)NS(=O)(=O)c1ccccc1C(F)(F)F (stereo unspecified),3802
N#CCCSC(=S)C1CCCC1=N (stereo unspecified),4043
Cc1cccc(C)c1NC(=O)c1ccc2sc([C@@H]3O[C@H](CO)[C@H](O)[C@H](O)[C@H]3O)nc2c1,6040
O=[N+]([O-])c1ccc(NN=C(Oc2ccccc2)c2ccc([N+](=O)[O-])cc2)cc1,3555
Cc1ccc(CNc2nc(NCc3ccccc3)nc3ccsc23)c(C)c1,4012
Cc1nc2c(=O)[nH]n(C)c2nc1C,3487

# Of the compounds above, 3 have a tert-butyl group:
SMILES,Autofluor counter
CC(C)(C)C(=O)c1c(N)[nH]c(C(=O)c2ccccc2)c1-c1ccc(F)cc1,4830
CC1=C(C(=O)N2CCOCC2)CC(CC(=O)NCCCN(C)C)C(=O)N1Cc1ccc(C(C)(C)C)cc1 (stereo unspecified),5877
Cc1noc(C)c1C(=O)OC(C)C(=O)c1ccc(C(C)(C)C)cc1 (stereo unspecified),3530

# Remaining list, next part.
SMILES,Autofluor counter
COc1cccc(NC(=O)CN(C)C(=O)c2cc(Cl)nc3ccccc23)c1,3204
O=C1NC[C@H](Cc2ccc(O)cc2)N(C[C@@H]2CCCN2C[C@H](Cc2ccccc2)N2C[C@H](Cc3ccc(O)cc3)N(CC3CCCCC3)C(=O)C2=O)C1=O,6424
CC(=O)c1ccc(N2CCN(S(=O)(=O)c3ccc4c(c3)CCC(=O)N4)CC2)cc1,3710
O=C(CN1C(=O)NC2(CCc3ccccc32)C1=O)Nc1ccc(Cl)cc1F (stereo unspecified),3919
CN(Cc1cnn(-c2ccccc2)c1)C(=O)c1cccc(S(=O)(=O)Nc2ccccc2F)c1,3949
Nc1[nH]c(C(=O)c2ccccc2)c(-c2ccccc2C(F)(F)F)c1C(=O)NCc1ccc(F)cc1,6071
CC1(C)CN(CCc2ccccc2)C(=O)[C@H]1CC(=O)Nc1ccccc1,3487
CCCCC[C@H](C)N1C[C@@H](COCc2ccccc2)Oc2cc(N3CC[C@H](O)C3)ccc2S1(=O)=O,4227
CC(C)(C)c1ccc(S(=O)(=O)NC(=O)C2(C)CCN2C(=O)C2CCCCC2)cc1 (stereo unspecified),2834
CC(C)(C)c1ccc(-n2ncc3c2CCCC3NC(=O)c2ccco2)cc1 (stereo unspecified),3735
COc1cccc(-c2cc(NC=O)c3ncc(-c4ccc(C(C)=O)cc4)n3c2)c1,3982
C#CCN(C[C@@H]1[C@@H](OC(=O)NCC2CCCCC2)[C@@H](OC(=O)NCC2CCCCC2)Cn2c(=O)n(CCCCCC)c(=O)n21)S(=O)(=O)c1ccc(C)cc1,3340

# Laid out differently: entries from further up
Compound | Autofluor counter
O=C(CN1C(=O)NC2(CCc3ccccc32)C1=O)Nc1ccc(Cl)cc1F (stereo unspecified) | 3919
CN(Cc1cnn(-c2ccccc2)c1)C(=O)c1cccc(S(=O)(=O)Nc2ccccc2F)c1 | 3949
Nc1[nH]c(C(=O)c2ccccc2)c(-c2ccccc2C(F)(F)F)c1C(=O)NCc1ccc(F)cc1 | 6071
CC1(C)CN(CCc2ccccc2)C(=O)[C@H]1CC(=O)Nc1ccccc1 | 3487
CCCCC[C@H](C)N1C[C@@H](COCc2ccccc2)Oc2cc(N3CC[C@H](O)C3)ccc2S1(=O)=O | 4227
CC(C)(C)c1ccc(S(=O)(=O)NC(=O)C2(C)CCN2C(=O)C2CCCCC2)cc1 (stereo unspecified) | 2834

# Next results follow:
SMILES,Autofluor counter
COCCNc1nc(-c2ccc(Cl)cc2C)c2sccc2n1,3020
COC(=O)c1ccc2nc(-c3ccc(OC)c(OC)c3)c(Cc3cccc(F)c3)n2c1,6829
CCOC(=O)[C@]12Cc3c(cc(OC)c(OC)c3OC)[C@H]1N(Cc1ccccc1)C(=O)c1cc(OC)ccc12,5615
CCOC(=O)C1(C)C(=O)CC2c3nc4ccccc4cc3CN2C1=O (stereo unspecified),3087
N#Cc1ccc(-c2nc3ccc(Br)cn3c2Cc2ccccc2C(F)(F)F)cc1,6635
COc1cccc(C(NC(=O)C2CCN(CCCOc3ccccc3)CC2)c2ccccn2)c1 (stereo unspecified),3167

# Bioassay records: PubChem BioAssay, NMMLSC

# The list is partial; rates above refer to the full screens.
